Screening results deposited in PubChem by Fisher Drug Discovery Resource Center.
NPYLR7 agonist = agonists of mosquito NPYLR7 receptor, primary screen, cell-based, Aedes aegypti, calcium fluorescence, mosquito biting behavior; HEK293T NPYLR7/Galpha15, GCaMP6s calcium fluorescence; activation, % at 10 µM; hit rate 0.15% among 270,000; in the data active = activation above about 40%;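 note: 0% = vehicle and 100% = reference agonist at the receptor; some compounds past the cut are filed as inactive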
NPYLR7 agonist max-min = recorded beside NPYLR7 agonist, whose call it bears; activation, %; measured here: Max-Min RFU normalised activation; some inactives read as strong as hits;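 span of the calcium signal over five minutes; 0% = vehicle and 100% = native peptide agonist; compound fluorescence can raise it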
Numbers without * were called inactive; & = joins results of further samples. This is a subset; rates above refer to the full screens.

For O=c1cccnn1CCNS(=O)(=O)c1cc(C(F)(F)F)ccc1Cl the results were NPYLR7 agonist 4.9 and NPYLR7 agonist max-min 3.2.
Screening CC1CN(c2cc(Oc3cccc(F)c3)ncn2)CCN1C(=O)c1ccc(F)cc1 (centres undefined) returned NPYLR7 agonist -2.7 and NPYLR7 agonist max-min -1.0.
`CCC(=O)N1CCCC1(C)C(=O)Nc1ccc(C)c(C)c1` (centres undefined) gave NPYLR7 agonist 3.7 and NPYLR7 agonist max-min 1.0.
CC(C)Oc1cccc(-c2nc3c(c(=O)[nH]c(=O)n3C)n2C)c1 was read as NPYLR7 agonist 4.5 and NPYLR7 agonist max-min 2.4.
CC(=O)c1ccc(OCC=C(C)C)c(OCC=C(C)C)c1 was read as NPYLR7 agonist 2.0 and NPYLR7 agonist max-min 8.2.
`Cc1ccccc1C1CCCN(Cc2nc(CC3CC3)no2)C1` (centres undefined) gave NPYLR7 agonist 1.9&-0.1 and NPYLR7 agonist max-min -1.8&-4.6.
Screening Cc1cnc(NC(=O)C2(C)CCN(C(C)C)C2)s1 (centres undefined) returned NPYLR7 agonist 2.0 and NPYLR7 agonist max-min 0.7.
`CN(C)C(CNC(=O)Cc1ccc(-c2ccccc2)cc1)c1ccsc1` (centres undefined) gave NPYLR7 agonist 5.3 and NPYLR7 agonist max-min -1.6.
O=C(Nc1ccc2c(c1)CCC2)c1cc2n(n1)CCN(Cc1ccccc1F)C2=O was read as NPYLR7 agonist 16.2 and NPYLR7 agonist max-min 4.8.
COc1ccc(CCN(C)C2CCCN(Cc3cc(CC(C)C)n[nH]3)C2)cc1OC (centres undefined) was read as NPYLR7 agonist -0.4 and NPYLR7 agonist max-min -4.8.
For CSc1cccc(CN2CCN(Cc3ccsc3)C(CCO)C2)c1 (centres undefined) the results were NPYLR7 agonist 6.5 and NPYLR7 agonist max-min 2.3.
`CCOc1ccc(C2NC(=O)NC3=C2C(=O)N(CCC(C)C)C3)cc1` (centres undefined) gave NPYLR7 agonist 11.6 and NPYLR7 agonist max-min 5.1.
Screening CC(=NNC(N)=S)c1ccc2c(c1)OCCO2 returned NPYLR7 agonist 0.0 and NPYLR7 agonist max-min 0.0.
Screening CSc1oc(-c2cccs2)nc1S(=O)(=O)c1ccc(F)cc1 returned NPYLR7 agonist 0.6 and NPYLR7 agonist max-min -2.0.
For CCN(Cc1ccc(C)o1)C(=O)c1cc(CN2CCOCC2)on1 the results were NPYLR7 agonist 24.0 and NPYLR7 agonist max-min 7.9.
For COc1ccc(C(C2Sc3ncnn3C2=O)N2CCN(CCO)CC2)cc1 (centres undefined) the results were NPYLR7 agonist -3.7 and NPYLR7 agonist max-min 1.6.
`CNC(=O)Cn1c(-n2nc(C)cc2C)nc(C)c(C)c1=O` gave NPYLR7 agonist -1.4 and NPYLR7 agonist max-min 4.9.
Screening COc1ccc(S(=O)(=O)N2CCC3(CC2)OCCN3S(=O)(=O)c2c(C)cc(C)cc2C)cc1 returned NPYLR7 agonist 2.0 and NPYLR7 agonist max-min 0.7.
`Cc1sc2c(c1C)CN(C1CCCC1)CN2C(=O)c1ccco1` gave NPYLR7 agonist 4.6 and NPYLR7 agonist max-min 18.1.
Screening CCn1ncc(CN2CCCC(C(=O)Nc3cccc(-c4cc5ccccc5[nH]4)c3)C2)c1C (centres undefined) returned NPYLR7 agonist -0.7 and NPYLR7 agonist max-min -3.4.
Cn1nnc2c(SCC(=O)NC3CCCC3)ncnc21 was read as NPYLR7 agonist 0.9 and NPYLR7 agonist max-min 18.6.
`COc1ccc(C)cc1Nc1nc2c(S(=O)(=O)c3cccc(Cl)c3)nnn2c2ccsc12` gave NPYLR7 agonist -1.3 and NPYLR7 agonist max-min -6.3.
For CC(Sc1n[nH]c(-c2cccs2)n1)c1ccc(F)cc1F (centres undefined) the results were NPYLR7 agonist -2.6 and NPYLR7 agonist max-min -4.2.
`CCCc1cc(N2CCN(Cc3cccc(OC)c3F)CC2)nc(C)n1` gave NPYLR7 agonist 4.6 and NPYLR7 agonist max-min -0.6.
Screening O=C(Cn1cnnn1)N1CCC(n2c(-c3ccccc3)nc3ccc(F)cc32)CC1 returned NPYLR7 agonist 11.5 and NPYLR7 agonist max-min 19.0.
For Cc1cccc(Cn2cccc2CN(Cc2cccc(Cl)c2)CC(C)C)c1 the results were NPYLR7 agonist -0.5 and NPYLR7 agonist max-min 0.2.
Cc1nc(N=Nc2cc([N+](=O)[O-])ccc2Cl)c(COP(=O)(O)O)c(C=O)c1O was read as NPYLR7 agonist 7.1 and NPYLR7 agonist max-min -10.1.
For CN(C)P(=NC(=S)Nc1cccnc1)(c1ccncc1)N(C)C the results were NPYLR7 agonist 6.2 and NPYLR7 agonist max-min 4.8.
For Cc1ccc(C)c(OCC(O)Cn2nc(C)c3ccccc3c2=O)c1 (centres undefined) the results were NPYLR7 agonist 1.5 and NPYLR7 agonist max-min 1.7.
`CC(SC1=Nc2ccccc2CS1)C(=O)N1CCNC1=O` (centres undefined) gave NPYLR7 agonist 10.0 and NPYLR7 agonist max-min 4.1.
O=C(/C=C/c1cccc(F)c1)N(c1ccccn1)C1CCCCC1 was read as NPYLR7 agonist 4.0 and NPYLR7 agonist max-min -0.9.
Screening CCC(C)N(Cc1cccn1Cc1cccc(OC)c1)C(=O)CN(CCCOC)C(=O)c1cccc([N+](=O)[O-])c1 (centres undefined) returned NPYLR7 agonist -10.5 and NPYLR7 agonist max-min -9.6.
`CCS(=O)(=O)c1ccc(-c2ccc(NS(=O)(=O)c3ccc(Cl)s3)cc2)nn1` gave NPYLR7 agonist 13.6 and NPYLR7 agonist max-min 7.3.
Screening CCc1ccc2oc(=O)cc(CN(C)C(COC)c3ccccn3)c2c1 (centres undefined) returned NPYLR7 agonist 0.5 and NPYLR7 agonist max-min -0.2.
`CC(C)(C)c1nc(SCC(=O)N(c2ccccc2)C2CCS(=O)(=O)C2)n[nH]1` (centres undefined) gave NPYLR7 agonist 4.7 and NPYLR7 agonist max-min -2.5.
`COc1ccc(CCNC(=O)c2ccccc2N2CCC(NS(=O)(=O)c3ccc(Cl)cc3)CC2)cc1OC` gave NPYLR7 agonist 0.4 and NPYLR7 agonist max-min 6.3.
For COCC1CCCN(C(=O)c2ccc(-c3cnn(C)c3)nc2)C1 (centres undefined) the results were NPYLR7 agonist -5.9 and NPYLR7 agonist max-min -5.2.
For O=C(c1ccc(CO)cc1)N1CCCc2ccccc21 the results were NPYLR7 agonist -5.6 and NPYLR7 agonist max-min -4.7.
CCCCn1c(N)c(C(=S)NC(=O)C2CC2)c(=O)[nH]c1=O was read as NPYLR7 agonist 1.3 and NPYLR7 agonist max-min 3.3.
For COc1ccc(Br)cc1C(=O)Nc1ccc2c(c1)C(=O)N(CC(C)C)C2=O the results were NPYLR7 agonist -3.4 and NPYLR7 agonist max-min 10.4.
`O=C1Nc2ccc(S(=O)(=O)Nc3ccc4oc(=O)sc4c3)c3cccc1c23` gave NPYLR7 agonist -0.1 and NPYLR7 agonist max-min 1.3.
Cn1c(CN2CCN(C(=O)NC3CCCCC3)CC2)nc2cc([N+](=O)[O-])ccc21 was read as NPYLR7 agonist 0.7 and NPYLR7 agonist max-min -2.1.
For CCOc1ccccc1N1CCN(C(=O)c2cc(-c3cccc(OC)c3)nn2-c2cccc([N+](=O)[O-])c2)CC1 the results were NPYLR7 agonist -2.8 and NPYLR7 agonist max-min 5.6.
For CCc1nc2c(OCc3ccc(Cl)cc3)cccn2c1N(C)C(C)=O the results were NPYLR7 agonist -12.0 and NPYLR7 agonist max-min -14.9.
Screening CN1CC2(CCCN(C(=O)CCc3nc4ccccc4[nH]c3=O)CC2)OC1=O (centres undefined) returned NPYLR7 agonist 3.5 and NPYLR7 agonist max-min 2.9.
`COc1cc(OC)cc(-c2nc3ccccc3c(=O)n2Cc2ccc(Cl)cc2)c1` gave NPYLR7 agonist 4.2 and NPYLR7 agonist max-min 0.6.
`COC(=O)c1cccc2c1CCCN2C(=O)c1ccc(N(C)C)c(F)c1` gave NPYLR7 agonist 0.0 and NPYLR7 agonist max-min -0.5.
`Cc1nsc(NC(=O)NC2CCOCC2)n1` gave NPYLR7 agonist -16.1 and NPYLR7 agonist max-min -16.3.
Screening O=C1CC(C=Cc2ccncc2)=Nc2ccccc2N1 returned NPYLR7 agonist 2.7 and NPYLR7 agonist max-min 0.3.
CCOC(=O)c1c(NC(=O)c2ccc(OC)cc2)sc(C(=O)Nc2ccccc2C)c1C was read as NPYLR7 agonist -14.2 and NPYLR7 agonist max-min -7.8.

For reference, 5 of the compounds above:
`COc1cc(OC)cc(-c2nc3ccccc3c(=O)n2Cc2ccc(Cl)cc2)c1` gave NPYLR7 agonist 4.2 and NPYLR7 agonist max-min 0.6.
`COC(=O)c1cccc2c1CCCN2C(=O)c1ccc(N(C)C)c(F)c1` gave NPYLR7 agonist 0.0 and NPYLR7 agonist max-min -0.5.
`Cc1nsc(NC(=O)NC2CCOCC2)n1` gave NPYLR7 agonist -16.1 and NPYLR7 agonist max-min -16.3.
Screening O=C1CC(C=Cc2ccncc2)=Nc2ccccc2N1 returned NPYLR7 agonist 2.7 and NPYLR7 agonist max-min 0.3.
CCOC(=O)c1c(NC(=O)c2ccc(OC)cc2)sc(C(=O)Nc2ccccc2C)c1C was read as NPYLR7 agonist -14.2 and NPYLR7 agonist max-min -7.8.

(listing goes on)
Screening Cc1cnc(SCCN2CCOCC2)nc1C1CCCN(C(=O)c2csc3c2CCCC3)C1 (centres undefined) returned NPYLR7 agonist 26.9 and NPYLR7 agonist max-min 7.1.
`COc1cc2c(cc1OC)C(c1ccccc1)N(C(=O)C(OC(C)=O)c1ccccc1)CC2` (centres undefined) gave NPYLR7 agonist -0.8 and NPYLR7 agonist max-min -3.0.
`Cc1ccc(OCCN(C)C(=O)CCc2nnc(CCc3c[nH]c4ccccc34)o2)cc1` gave NPYLR7 agonist -2.2 and NPYLR7 agonist max-min -2.4.
For O=C(Cn1cnnn1)Nc1nc(-c2cccs2)cs1 the results were NPYLR7 agonist 8.2 and NPYLR7 agonist max-min 14.9.
For O=S(=O)(Nc1ccc(O)cc1)c1cccc2cccnc12 the results were NPYLR7 agonist -0.7 and NPYLR7 agonist max-min 0.0.
`CC(C(=O)O)[C@H]1CCC2C3CC=C4C[C@@H](O)CC[C@]4(C)C3CC[C@@]21C` (some centres undefined) gave NPYLR7 agonist -5.7 and NPYLR7 agonist max-min -9.8.
For Cc1ccc(N2CCC(N(C)CCC(N)=O)CC2)cc1Cl the results were NPYLR7 agonist 5.0 and NPYLR7 agonist max-min 1.4.
For CC(=O)Nc1ccc(CN(C)Cc2cccc3cnccc23)cc1 the results were NPYLR7 agonist 4.6 and NPYLR7 agonist max-min -3.0.
`COc1cc(OC)cc(C(=O)N2CCN(c3cc(S(=O)(=O)N4CCOCC4)ccc3OC)CC2)c1` gave NPYLR7 agonist 13.9 and NPYLR7 agonist max-min 9.7.
COC(=O)Cn1ncn2c(cc3sc(C)cc32)c1=O was read as NPYLR7 agonist -1.0 and NPYLR7 agonist max-min -4.7.
Screening COc1ccc(OC)c(N=Nc2c(C)nn(-c3ccccc3)c2N)c1 returned NPYLR7 agonist -8.7 and NPYLR7 agonist max-min -13.0.
For COc1cccc([C@@H](C)NC(=O)c2c(C)noc2-c2cccc(C(F)(F)F)c2)c1 the results were NPYLR7 agonist 5.6 and NPYLR7 agonist max-min 9.5.
`CC(C)Cc1cnc2c(c1SCc1ccccn1)c(=O)n(C)c(=O)n2C` gave NPYLR7 agonist 2.2 and NPYLR7 agonist max-min 2.8.
O=C(NCCc1ccccc1F)N1CCN(S(=O)(=O)c2cc(F)ccc2F)CC1 was read as NPYLR7 agonist 7.2 and NPYLR7 agonist max-min 10.9.
For COCC(=O)NCC1CCN(Cc2cc(C)ccc2C)C1 (centres undefined) the results were NPYLR7 agonist 1.2 and NPYLR7 agonist max-min 0.1.
For O=C(c1ccco1)N(Cc1ccc2c(c1)OCO2)Cc1c(-c2ccccc2)noc1N1CCCC1 the results were NPYLR7 agonist 9.2 and NPYLR7 agonist max-min 8.9.
COCCNC(=O)Cn1nc(C(F)(F)F)c(Br)c1C was read as NPYLR7 agonist -2.2 and NPYLR7 agonist max-min -9.8.
Screening CC(=O)Nc1ccc(-n2c(CCC(=O)NCc3cnc(C)cn3)ccc2-c2ccc(F)cc2)cc1 returned NPYLR7 agonist 8.6 and NPYLR7 agonist max-min 0.9.
Screening COc1ccc(CN2CCn3nc(C(=O)N4CCC5(CC4)OCCO5)cc3C2=O)cc1 returned NPYLR7 agonist -1.7 and NPYLR7 agonist max-min 3.7.
Screening Cc1ccccc1-n1c(-c2ccc(Cl)cc2)cc(C(=O)NC(C)C(C)C)c1C (centres undefined) returned NPYLR7 agonist 20.6 and NPYLR7 agonist max-min 16.4.
`Cc1cc(NC(=O)CN2CCC3(CC2)CC(=O)c2cc(Br)ccc2O3)nn1-c1ccccc1` gave NPYLR7 agonist -6.7 and NPYLR7 agonist max-min -12.6.
`COCCN(Cc1ccc(OS(=O)(=O)c2cccc(C(F)(F)F)c2)cc1)C(=O)Nc1cccc(F)c1` gave NPYLR7 agonist -1.2 and NPYLR7 agonist max-min 7.1.
`CCCc1ccccc1N1C(=O)CSC1c1ccc(NC(=O)C2CC2)cc1` (centres undefined) gave NPYLR7 agonist -5.6 and NPYLR7 agonist max-min 4.1.
Screening O=[N+]([O-])c1cc(S(=O)(=O)Nc2nc3c(F)cc(F)cc3s2)ccc1Cl returned NPYLR7 agonist 1.1 and NPYLR7 agonist max-min -4.7.
For N#CCCN1CC(O)CN(C(=O)c2cccc(C(F)(F)F)c2)CC1=O (centres undefined) the results were NPYLR7 agonist 17.5 and NPYLR7 agonist max-min 28.5.
For CCOC(=O)C1CCN(C(=O)CSc2nc(Cl)cc(N3CCN(C(=O)C4CC4)C(C)C3)n2)CC1 (centres undefined) the results were NPYLR7 agonist -16.3 and NPYLR7 agonist max-min -4.0.
